Ba CapD inh = Bacillus anthracis CapD inhibitors, primary screen, biochemical, fluorescence intensity | z-score (test concentration not listed) | 140,000 compounds, 0.23% hits | AID 492967, 2010 | purified CapD enzyme, fluorescence intensity read-out; stronger effect = lower value; some hits fall short of the stated cut;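 active = z-score under -4 in either of two replicates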;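 note: stock transfer was 100 nL into about 40 µL; score is relative to mean and spread of the plate; one replicate is shown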
AID504770 = growth inhibition of E. coli YBA685, primary screen, V. cholerae RctB inhibitors; E. coli YBA685 rctB-dependent plasmid, OD600 growth, 3 h; stronger effect = lower value; z-score (concentration not given with the values); 130,000 compounds, 0.27% hits;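 active = z-score under -2 on both plates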;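 note: wells of about 30 µL received 100 nL stock; score is relative to mean and SD of the test wells; the first replicate is given; strong numbers were not always called active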
* marks the source's active call; other numbers are inactive results; x = no result given.

Each structure is followed by: Ba CapD inh | AID504770
CSCON1C(=O)CN(C(=O)c2ccccc2)C1c1cccc([N+](=O)[O-])c1 (centres undefined)
 : -0.085 | x
Cc1c(NC(=S)NC(=O)c2sc3ccccc3c2Cl)c(=O)n(-c2ccccc2)n1C
 : -0.35 | x
COc1ccccc1NC(=O)c1sc2ncn(Cc3cccc(F)c3)c(=O)c2c1C
 : 4.2 | 0.65
COc1ccc(/C=C2/SC(=O)N(CNc3cccc(Cl)c3)C2=O)cc1OC
 : -0.83 | x
Cc1cccn2c(=O)c3cc(C(=O)N4CCCCC4)sc3nc12
 : x | -0.15
CCOC(=O)c1c(-c2ccccc2)oc2cc(Br)c(OCC(N)=O)cc12
 : x | 0.45
O=C(Nc1ccc2ccccc2c1)/C(=C/c1cccc([N+](=O)[O-])c1)NC(=O)c1ccccc1Br
 : 0.12 | x
CC(C)c1cc(C(=O)O)n(C)n1
 : x | 0.1
Cc1c(OCc2ccccc2)ccc2c(C(F)(F)F)cc(=O)oc12
 : 5.5 | -0.8
CCN(c1ccccc1)S(=O)(=O)c1c[nH]c(C(=O)OC)c1
 : -0.26 | -0.05
CSc1ncccc1C(=O)OCC(=O)c1ccccc1
 : x | 0.45
COc1cccc2sc(=NC(=O)CC34CC5CC(CC(C5)C3)C4)n(C)c12
 : -0.44 | 1.4
OC(CN1CCN(Cc2ccc(Cl)cc2)CC1)Cn1c2ccccc2c2ccccc21 (centres undefined)
 : 2.1 | x
CC1CCN(c2ccc(-c3c(C#N)c(N)n4c(nc5ccccc54)c3C#N)cc2[N+](=O)[O-])CC1
 : -0.8 | x
COC(=O)CNS(=O)(=O)c1ccc(F)cc1
 : 0.72 | 0.95
O=C(OC1CCCC1)c1ccccc1C(F)(F)F
 : -0.24 | 0.5
COc1ccc(C2CC(=O)C3=C(C2)NC(C)=C(C(=O)OC(C)C)C3c2cc(Br)c(O)c(OC)c2)cc1 (centres undefined)
 : 9.2 | x
CC(C)(C#N)NC(=O)c1ccco1
 : 0.36 | 0.6
O=C(Nc1ccc(O)cc1)/C(=C/c1cccc([N+](=O)[O-])c1)NC(=O)c1ccccc1Br
 : -0.95 | x
CC(O)(CS(=O)(=O)c1ccccc1)C(=O)Nc1cccc(C(F)(F)F)c1 (centres undefined)
 : -0.7 | x

(next part)
Each structure is followed by: Ba CapD inh | AID504770
CC(C)N1C(=O)/C(=C\c2ccc(C(F)(F)F)cc2)N(C)C1=S
 : x | 0.65
N#Cc1c(N)nc2c(c1-c1cccnc1)CCCC2
 : 9.3 | -0.6
Cc1ccc(F)cc1S(=O)(=O)NC(c1ccccc1)c1ccccn1 (centres undefined)
 : 0.21 | x
O=c1c2ccccc2nc(-c2ccccc2)n1O
 : -0.13 | x
CSc1ccc(CNC2CN3CCC2CC3)cc1 (centres undefined)
 : -0.29 | -0.3
CC1CN(C(=O)c2ccc(Br)o2)CC(C)O1 (centres undefined)
 : 0.08 | 0.2
O=C(NCCN1CCCCCC1)c1ccc(CS(=O)(=O)c2c(Cl)cccc2Cl)o1
 : -0.34 | -0.8
O=C(NC1CCCCC1)c1noc2c1CCCCC2
 : 0.54 | 0.15
CC1CCc2c(sc(NC(=S)NC(=O)c3ccn(C)n3)c2C(N)=O)C1 (centres undefined)
 : x | -0.4
CC(C)NC(=O)Cn1c(=O)cnc2ccccc21
 : x | 0.25
O=C1CC2(CCCC2)C(=O)N1
 : x | 0.85
COc1ccc(N2C(=O)C(N3C(=O)c4ccc([N+](=O)[O-])cc4C3=O)C2c2cc(Br)ccc2OC)cc1Cl (centres undefined)
 : -0.33 | x
CCOC(=O)C1CCN(C(=O)c2nn(-c3ccccc3)nc2C)CC1
 : 0.58 | 0.2
Cc1ccc(CSC2=NCCN2)cc1
 : 0.67 | x
C=CCn1c(SCC(=O)/C(C#N)=C2\Sc3ccccc3N2C)nc2ccccc2c1=O
 : x | 0
c1ccc2c(c1)CC1(CCCCC1)N=C2Nn1cnnc1
 : -0.27 | x
CCCCC(=O)Nc1c(-c2cccs2)nc2ccccn12
 : 68 | -0.5
CN(C)S(=O)(=O)Nc1cccc(C(F)(F)F)c1
 : 0.045 | -0.05
CC(Sc1ncnc2sccc12)C(=O)Nc1ccc(S(N)(=O)=O)cc1 (centres undefined)
 : x | 1.4
O=C(NNC(=O)c1ccccc1[N+](=O)[O-])c1ccc(Cl)cc1
 : -0.28 | x

Further records:
Each structure is followed by: Ba CapD inh | AID504770
CN(Cc1nccn1C)c1ncnc2sc3c(c12)CCCC3
 : x | -0.05
CN(C)C(=O)c1cc(Br)ccc1Cl
 : 0.52 | -0.35
COc1ccc(CC(=O)NCCSc2c[nH]c3ccccc23)cc1
 : -0.25 | 1.7
CC1(C)CC2CC(C)(CN2C(=O)CSc2nc3ccccc3o2)C1 (centres undefined)
 : x | 0.05
NC(=O)C1CCN(c2ncc(C(F)(F)F)cc2Cl)CC1
 : -0.23 | 0.1
O=C1SCCc2c1n(Cc1ccccc1)c1ccccc21
 : x | -0.1
O=C1CC2(CCCC2)C(=O)N1c1ccc(I)cc1
 : 0.26 | -0.5
C=CCSc1nc2c(cc1C#N)C(=O)CC(C)(C)C2
 : -0.91 | -0.25
CCC(C)(C)c1cc2cc(NS(=O)(=O)c3ccc(Cl)cc3)ccc2[nH]1
 : -0.56 | x
CC(C)CC1C2CN(Cc3ccccc3)CC=C2C(C#N)=C(N)C1(C#N)C#N (centres undefined)
 : x | -0.1
CC1CC=C2C(C#N)=C(N)C(C#N)(C#N)C(c3cccc(Cl)c3)C2C1 (centres undefined)
 : 0.59 | x
COC(=O)c1ccc(/C=N/NC(N)=S)n1-c1ccc(F)cc1
 : -0.56 | 0.8
Cc1ccc(N2C(=O)CC(N3CCN(c4cccc(C)c4C)CC3)C2=O)cc1Cl (centres undefined)
 : x | 1.7
Cc1noc(C)c1COc1ccc(/C=N/NC(=S)NC(C)(C)C)cc1
 : x | 0.35
Cc1cc(=O)n2[nH]c(C(=O)NCc3ccccc3)nc2n1
 : x | -0.1
COc1ccc(N2CC(=O)N(/N=C/c3ccc(N(C)C)cc3)C2=S)cc1
 : 6.2 | 0.45
O=C(Oc1ccc(Cl)cc1)c1ccc2nsnc2c1
 : 0.38 | 0.6
Cc1ccccc1-c1cc(C(=O)O)c2c(-c3ccccc3)[nH]nc2n1
 : 1.3 | -0.55
Cc1cccc(CCOC(=O)NCCNc2ccccc2)c1
 : 0.085 | x
CN1C(=O)CC2(CC(=O)N(Cc3ccccc3)C2)C1=O (centres undefined)
 : 0.52 | 1.1

Whole records, looked up by structure:
Record of CN(C)C(=O)c1cc(Br)ccc1Cl : Ba CapD inh: 0.52; AID504770: -0.35
Record of NC(=O)C1CCN(c2ncc(C(F)(F)F)cc2Cl)CC1 : Ba CapD inh: -0.23; AID504770: 0.1
Record of COc1ccc(CC(=O)NCCSc2c[nH]c3ccccc23)cc1 : Ba CapD inh: -0.25; AID504770: 1.7

Carrying on:
Each structure is followed by: Ba CapD inh | AID504770
O=C(Nc1ccccn1)c1cc2c(s1)CCCC2
 : 0.34 | -0.7
O=c1c2sc(-c3ccc([N+](=O)[O-])cc3)cc2nc2n1CCC2
 : -0.28 | x
N#CC(c1cccs1)N1CCOCC1 (centres undefined)
 : -0.16 | x
O=C1N=C(N2CCN(C3=NC(=O)/C(=C/c4ccc(O)cc4)S3)CC2)S/C1=C\c1ccc(O)cc1
 : 5.8 | x
CCOC(=O)COc1cc(O)c2c(=O)cc(-c3ccccc3)oc2c1
 : 0.08 | 0.05
COC(=O)c1ccc(COC(=O)C2=NNC(=O)CC2)cc1
 : x | -0.3
CC1=C(C#N)C(c2ccccc2)C2=C(CC(c3ccccc3)CC2=O)N1 (centres undefined)
 : 0.79 | -0.65
O=S(=O)(Nc1ccc(Oc2cc(C(F)(F)F)cc(C(F)(F)F)c2)cc1)c1ccc(Cl)cc1
 : 0.54 | x
O=C1Nc2ccc(Cl)cc2C(c2ccccc2)=NC1O (centres undefined)
 : 0.03 | x
COC(=O)c1sc(C(C)(C)C)cc1CS(=O)(=O)c1ccccn1
 : -0.045 | 0.6
Cc1ccccc1N/C(SCc1cccc(Br)c1)=C(/C#N)C(N)=O
 : 0.08 | x
CN1c2ccccc2C(=O)C(=C2SCCCS2)S1(=O)=O
 : -0.74 | -0.4
O=C(OCC1CCCCN1Cc1ccccc1F)N1CCN(c2cccc3[nH]ccc23)CC1 (centres undefined)
 : 0.82 | x
COC(=O)COC(=O)c1ccc(Oc2nc(N(C)C)nc(N(C)C)n2)cc1
 : 0.53 | x
C(=N\N=C\c1cccnc1)/c1cccnc1
 : 0.43 | 0.7
CCSCCOC(=O)C1=C(C)NC2=C(C(=O)CC(C)(C)C2)C1c1ccc(OC)c(Br)c1 (centres undefined)
 : 36 | x
Cc1[nH]n(C)c(=O)c1C(=O)c1c(-c2ccccc2Cl)noc1C
 : 0.41 | 2.4
NC(=O)NC(=O)CSc1nnc(-c2ccccc2)n1Cc1ccc2c(c1)OCO2
 : x | 0.1
O=C(Nc1ccc(OC(F)(F)F)cc1)C(F)(F)Oc1ccc(F)cc1
 : -0.73 | x
C/C(=N\O)c1ccc(-n2ccnc2)cc1
 : -0.81 | 2

Further records.
Each structure is followed by: Ba CapD inh | AID504770
COc1ccc(OC)c(N=c2oc3cc(O)ccc3cc2C(=O)Nc2ccccn2)c1
 : x | 0.25
CCOC(=O)CSc1nnc(CNC(=O)c2cccs2)n1C
 : -1.5 | -0.9
NS(=O)(=O)c1ccc(Sc2ccccc2)c([N+](=O)[O-])c1
 : -0.79 | x
c1ccc2nc3c(nc2c1)c1ccccc1n3CCN1CCCCC1
 : -0.8 | x
Fc1ccc(-c2csc(=Nc3ccccc3)n2Cc2cccnc2)cc1
 : 0.1 | -0.05
Cc1ccc(S(=O)(=O)NC(=O)Nc2nccc3cccnc23)cc1
 : 15 | x
COc1ccc(/C=c2\sc3ncnn3c2=O)cc1
 : x | -0.3
Cn1nnnc1-c1ccco1
 : 0.67 | -0.1
CCCn1c(N)c(C(=O)COC(=O)c2cccnc2SC)c(=O)[nH]c1=O
 : x | -0.65
Cc1ccc(NC(=O)C2CC2(c2ccccc2C)c2ccccc2C)cc1 (centres undefined)
 : -0.42 | x
c1cn(CCCNc2ncnc3sc4c(c23)CCCC4)cn1
 : 0.81 | -0.2
CC1(C)CC(CC(N)=O)(c2ccccc2)CCO1 (centres undefined)
 : x | -0.4
N#CC(C(=O)Cc1ccccc1)c1ccc(Cl)cc1 (centres undefined)
 : -1.2 | -0.7
Cc1ccc(NC(=O)Cn2cc3c(n2)CCCC3)cc1
 : -0.26 | -0.15
Cc1cccc(OP(N)(N)=O)c1C
 : x | 0.4
COCCOc1cc(COC)nc(-c2cccc(C)c2)n1
 : 0.22 | 0
O=c1cccc2n1CC1CC2CN(CC(O)CSc2ccccc2)C1 (centres undefined)
 : 0.28 | x
CCCCNC(=O)C1CCN(C(=O)c2cccc(Cl)c2)CC1
 : 0.6 | 0.35
COc1cccc(C2N(c3ccc(C)cc3)CCN2c2ccc(C)cc2)c1OC
 : -0.22 | x
CN(CC(=O)NC(=O)Nc1ccc2c(c1)OCCO2)C1CCCCC1
 : x | 0.15

Structures above with a tert-butyl group:
Each structure is followed by: Ba CapD inh | AID504770
Cc1noc(C)c1COc1ccc(/C=N/NC(=S)NC(C)(C)C)cc1
 : x | 0.35
COC(=O)c1sc(C(C)(C)C)cc1CS(=O)(=O)c1ccccn1
 : -0.045 | 0.6

Other records.
Each structure is followed by: Ba CapD inh | AID504770
CNC(=S)N/N=C/c1ccc(Cl)c(Cl)c1
 : -1.7 | x
C=CCc1c(O)c(CC)cc2c(C)cc(=O)oc12
 : -0.39 | -0.8
N#Cc1ccc(-c2csc(-c3ccno3)n2)cc1
 : 0.14 | -0.25
CS(=O)(=O)N(CCc1ccccc1)CC(=O)NCc1ccccc1
 : 0.33 | 0.1
Cc1ccc(NC(=O)CC(NCc2cccnc2)C(=O)O)cc1C (centres undefined)
 : 0.05 | 1.4
CC(C)Nc1ncnc2c1cnn2C
 : 0.33 | 2.5
CCOC(=O)C1CCN(C(C(=O)Nc2ccc(F)cc2)c2ccccc2)CC1 (centres undefined)
 : x | -0.4
O=C(CSc1n[nH]c(C(F)(F)F)n1)c1ccccc1
 : 1.1 | -0.3
CCOC(=O)c1sc(NC(=O)CCOc2ccccc2)cc1C
 : 2.1 | 0.75
OCCN1CCN(c2nc(NCc3ccco3)c3ccccc3n2)CC1
 : 46 | x
CCOc1cc2[nH]c(=O)n(CCC(=O)NC3CCCCC3C)c(=O)c2cc1OCC (centres undefined)
 : 7.5 | 0.1
Cc1cccc(-c2nc3ccccc3n2CCC(C)C)c1
 : 0.55 | 0.4
O=c1[nH]c(=O)c2nc3ccc(Cl)cc3nc2[nH]1
 : 3.6 | x
COC(=O)CNC(=O)c1cc(-c2ccccc2)nc2ccccc12
 : 27 | 0
O=C(NCc1cccnc1)NC(=O)c1ccccc1
 : -0.15 | -0.85
CCCSc1sc(C(=O)OCC)c2c1C(=O)CCC2
 : 0.49 | x
S=C(c1c[nH]c2ccccc12)N1CCCC1
 : -0.64 | 0.25
Cc1nc2ncccc2cc1C(=O)Nc1ccccc1
 : -0.11 | x
COc1ccccc1-n1c(=S)[nH]c2c(sc(=S)n2-c2ccc(Cl)c(C)c2)c1=O
 : -1.5 | x
O=C(c1cc(-c2ccc(Cl)cc2)n[nH]1)N1CCN(C(=O)c2ccco2)CC1
 : 0.71 | -0.85

Carrying on:
Each structure is followed by: Ba CapD inh | AID504770
Cc1ccc(S(=O)(=O)Nc2csc(C)c2C(=O)O)cc1
 : -0.035 | x
O=C(CCCc1c[nH]c2ccccc12)N1CCCCCC1
 : -0.15 | 0.35
CCOC(=O)C1CCN(c2nc3c(S(=O)(=O)c4ccc(C)c(C)c4)nnn3c3ccsc23)CC1
 : 10 | -0.6
Cc1ccc(C=Nn2nnnc2N)s1
 : -2.4 | -1.2
CCN(CC)S(=O)(=O)c1ccc(C(=O)Nc2c3c(nn2-c2ccc(OC)cc2)CSC3)cc1
 : -1.6 | x
CC1CCCCC1NC(=O)COC(=O)c1nc(Cl)ccc1Cl (centres undefined)
 : x | -0.55
O=c1cc(O)c2ccccc2o1
 : 0.74 | 0.7

Screening results deposited in PubChem by ICCB-Longwood Screening Facility, Harvard Medical School.
